# eIF4H inh – inhibitors of RNA binding by human eIF4H | Q15056 | 290,000 tested, 0.94% active | inhibition, % at 35 µM | eIF4H fluorescence polarization binding assay | AID 2012;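 active = 50% or more with normal probe brightness, or confirmed in later tests; inconclusive = above 50% with abnormal brightness, or retests that disagree; inactive = below 50% or failed in later tests; about a fifth of its hits are not listed in these tables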;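 note: calls also rest on retests at 20 µM and on dose response follow-up; 0% = protein and probe with vehicle and 100% = probe without protein; strong numbers were not always called active; many hits fall short of the cut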
# HIV Env fusion – blocks HIV Env-driven cell-cell fusion; HeLa-JRFL Env/CEM21 cell fusion, luciferase; inhibition, % at 12.3 µM; 360,000 tested, 1.1% active; AID 651610;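 active = mean replicate inhibition score of at least 50 and every replicate individually at or above 50; inconclusive = only one of the two criteria met; inactive = mean below 50 and not all replicates reaching 50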;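 note: 0% = plate neutral controls and 100% = maraviroc near 300 nM; one replicate is shown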
# Yeast UUG start – modulators of start codon recognition fidelity in yeast; activity score, % at 18.7 µM; 350,000 tested, 0.13% active; S. cerevisiae UUG-firefly luciferase reporter, luminescence/redox ratio; AID 602363;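 active = replicate mean at a twofold rise or more, about +100% in these data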;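 note: firefly luciferase made from a UUG start codon reports start codon fidelity; reporter light over untreated wells divided by growth signal over untreated wells; some hits fall short of that in this replicate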
# CSC inhib – blocks cancer stem cells | cancer stem cell-like cells viability, luminescence | inhibition, % at 7.5 µM | 300,000 tested, 1.1% active | AID 2717;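 active = mean at 75% or more and at least half the replicates too; inconclusive = mean and replicates disagree; tested in HMLE shEcad cells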;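 note: 0% = median of negative and 100% = median of positive control wells; the first replicate is given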
# PABP FP inh – PABP-poly(A) binding inhibition; P11940; PABP-poly(A) RNA binding, fluorescence polarization; inhibition, % at 35 µM; 290,000 tested, 1% active;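 active = 50% or more with normal probe brightness, or confirmed in later tests; inconclusive = above 50% with abnormal brightness, or retests that disagree; inactive = below 50% or failed in later tests; about a fifth of its hits are not listed in these tables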;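 note: calls also rest on retests at 20 µM and on dose response follow-up; controls were probe without protein and protein plus probe with vehicle; some compounds called inactive have numbers as strong as hits; many hits fall short of the cut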
# Rce1 inhib – blocks yeast Ras-converting enzyme; yeast membranes, quenched prenylated peptide cleavage fluorescence; 290,000 tested, 0.27% active; calls only; AID 2563; Q03530;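 active = fall in fluorescence gain of 50% or more versus controls, with final raw signal at or below 3038400; inconclusive = same 50% fall but final raw signal above 3038400; inactive = fall in fluorescence gain under 50%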;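 note: plate controls were neutral control wells for no effect and wells lacking membranes for full effect; tested at 10 µM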
# Target sequence (Q03530 whole entry, looked up): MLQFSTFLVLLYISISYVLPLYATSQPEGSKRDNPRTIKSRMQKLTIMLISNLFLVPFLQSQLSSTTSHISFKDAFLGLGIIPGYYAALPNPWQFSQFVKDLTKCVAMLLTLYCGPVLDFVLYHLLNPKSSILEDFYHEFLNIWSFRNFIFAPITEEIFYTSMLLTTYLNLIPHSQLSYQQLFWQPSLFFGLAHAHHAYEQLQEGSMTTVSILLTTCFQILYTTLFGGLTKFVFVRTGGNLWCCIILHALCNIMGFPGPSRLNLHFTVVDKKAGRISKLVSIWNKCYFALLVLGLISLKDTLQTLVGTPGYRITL
# MT1-MMP act inh – blocks activation of human MT1-MMP | HT1080 RFP-PRO-GFP cells, GFP/RFP ratio fluorescence, overnight; percent of plate control window, DMSO zero | GFP/RFP ratio change, % at 20 µM | 360,000 tested, 0.061% active | AID 651647;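 active = GFP/RFP ratio change of at least 30% with cell ATP level not reduced by more than half and red fluorescence within 50% of control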; note: strong numbers were not always called active
#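 Assay system: HT1080 RFP-PRO-GFP cells | Dosing: 20 µM single dose, 1% DMSO | Incubation: Cells overnight before dosing, compound overnight, 37 °C, 5% CO2 | Evaluation: GFP/RFP fluorescence ratio | Control set: DMSO-only wells and HT1080 RFP-L50D-GFP cell wells as references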
# MT1-MMP act inh RFP – second read-out of MT1-MMP act inh, no call of its own (marks repeat the call); RFP signal change, %; measured here: RFP expression control read;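 0 = vehicle wells; hits needed this value within 50% of zero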
# An asterisk follows results filed as active; i = inactive; ? = inconclusive; . = no result given.
SMILES,eIF4H inh,HIV Env fusion,Yeast UUG start,CSC inhib,PABP FP inh,Rce1 inhib,MT1-MMP act inh,MT1-MMP act inh RFP
CC(NC(=O)c1ccc(Cl)cc1)C(=O)NC1=NCCS1 (stereo not given),3,4,-24,-3,-4,i,0,4
CCn1c(SCC(=O)Nc2cc(C)on2)nc2sc3c(c2c1=O)CCCC3,0,.,-16,-1,2,i,-3,4
CC1CCCN(c2ccc(F)cc2N)C1 (stereo not given),8,20,.,5,4,i,8,0
O=S(=O)(/N=C(/NS(=O)(=O)c1ccccc1)c1ccccc1)c1ccccc1,9,23,9,-4,13,i,0,3
O=C(O)c1ccc(CN2C[C@@H](CO)O[C@@H](n3cnc4c(NCc5ccc(F)cc5)ncnc43)C2)cc1,.,16,-6,.,.,.,1,4
CCOc1ccccc1OCC(=O)O,-3,.,7,-14,-7,i,-4,-4
Cc1c(Br)c([N+](=O)[O-])nn1CCCC(=O)Nc1sc2c(c1C(N)=O)CCC(C)C2 (stereo not given),-3,11,.,-7,-10,i,0,-4
O=[N+]([O-])c1ccc(N2CCCCCC2)c(S(=O)(=O)N2CCCCC2)c1,7,-16,-12,12,8,i,0,-2
COc1ccc(-c2cc(C(=O)N3CCN(c4cccc(C)c4C)CC3)c3ccccc3n2)cc1OC,.,.,-11,15,.,i,-10,-10
CCOC(=O)c1cnn2c(C(F)F)cc(C3CC3)nc12,-4,.,.,-14,-17,i,-3,-1
COCc1cc(C)nc(SCc2ccccc2Cl)c1C#N,-12,0,.,15,0,i,2,-6
N[C@H]1C(O)O[C@H](CO)[C@@H](O)[C@@H]1O (stereo not given in full),.,8,-17,-4,.,i,0,-1
NC(=O)C1CCCN(C(=O)CN2C(=O)NC(c3ccccc3)(c3ccccc3)C2=O)C1 (stereo not given),.,11,3,.,.,.,0,2
COc1cc(O)c(C(CC(=O)N2CCCC2)c2ccc3c(c2)OCO3)c(OC)c1 (stereo not given),-7,-12,-26,4,1,i,4,1
O=C(Nc1nnc(SCc2ccccc2)s1)c1cc2c(s1)CCCC2,-4,.,-20,-5,-10,i,-3,-6
O=C(O)c1cn(Cc2cccnc2)c(=O)c2ccccc12,-4,.,.,-4,-3,i,.,.
Cc1cc(Cl)ccc1OCC(=O)NCC(c1cccs1)N1CCOCC1 (stereo not given),.,.,.,-15,.,i,-10,-25
CCN(C(=O)CSc1nnc2ccccn12)c1c(N)n(Cc2ccccc2)c(=O)[nH]c1=O,-1,-17,.,7,49,i,0,4
CCNC(=O)CN1c2cccc3cccc(c23)S1(=O)=O,4,.,-14,1,10,i,2,0
COC(=O)C1=C(N)c2ccccc2C1(C#N)c1ccccc1 (stereo not given),-2,.,-8,-12,-12,i,-1,1
CC1CCN(S(=O)(=O)c2nnc(NC(=O)c3ccccc3Br)s2)CC1,1,-15,-12,7,-1,i,4,2
COc1ccc(OCc2n[nH]c(=S)n2N)cc1,8,16,.,-10,-2,i,3,5
CCO/N=C1\C(=O)N(c2ccccc2)c2ccccc21,-6,7,.,-3,-1,i,1,4
COc1cccc(-c2cc(N3CCN(C(=O)c4ccoc4)CC3)n3nc(-c4cccc(Cl)c4)cc3n2)c1,.,36,-13,.,.,.,-2,-26
CCOC(=O)C1C(=O)NC(c2ccccc2)=NC1c1ccc(Cl)cc1 (stereo not given),-16,28,-15,6,4,i,1,5
Cc1ccc(-c2nn(CCC(N)=O)c(=O)c3ccccc23)cc1,-4,.,-7,-6,-3,i,-3,-2
Nc1cc(Cl)ccc1Oc1ccc(Cl)cc1,4,5,-4,-2,3,i,0,-6
O=C(O)CCc1ccc(-c2ccc(Cl)cc2)o1,1,-33,-11,1,-4,i,7,5
C/C(=N\NC(=O)c1ccn(C)n1)c1cccc(NC(=O)c2ccc(C)s2)c1,-1,-23,26,-13,-5,i,-7,1
CCCCNC(=S)NCc1ccc2[nH]c(C)cc2c1,13,53,-19,.,6,i,0,-2
CC(C)(C)c1nc2ccccc2c2nnc(SCC(=O)Nc3nc4ccccc4s3)n12,?,.,-6,-19,?,i,-8,-16
Clc1ccc(-n2nnc(-c3cccnc3Cl)n2)cn1,4,-101,-11,7,6,i,0,4
COc1ccccc1NS(=O)(=O)c1cc(NC(=O)C2CCC2)ccc1N1CCCCC1,-11,26,-7,5,3,i,-1,-7
S=C(Nc1ccc(-c2nc3ccccc3[nH]2)cc1)Nc1cccnc1,12,-31,-27,31,9,i,7,1
CC(Sc1nc(-c2ccccc2)cs1)C(=O)Nc1ccc(Cl)cn1 (stereo not given),30,3,.,13,-8,i,2,-2
CCN(C(=O)C12CC3CC(CC(C3)C1)C2)C1CCS(=O)(=O)C1 (stereo not given),.,-2,-5,-13,.,i,-4,4
O=C1CCC2CCCCC2(O)O1 (stereo not given),-4,.,-12,-4,1,i,2,2
CCOC(=O)CC(=O)CSc1nc2ccc(C)cc2cc1C#N,3,.,-12,-6,?,.,-65,-1
C=CCN(CC=C)S(=O)(=O)c1ccc2nc(NC(=O)C3CCCO3)sc2c1 (stereo not given),-1,13,.,8,1,i,8,4
O=S(=O)(c1ccc(Cl)cc1)c1cc(O)ccc1O,-6,-17,-16,-8,6,i,6,-3
C=C[C@@]1(C)CCC(/C(C)=C/C=C/C(C)(C)O)C[C@@H]1C(=C)C (stereo not given in full),.,12,-6,1,.,.,2,-1
CC1=CC2=NC(=O)CC(C)(C(=O)N(CC(=O)NC(C)C)C3CCCC3)N2C=C1 (stereo not given),-7,.,.,.,-3,i,.,.
COc1ccc(C2=Nn3c(nnc3-c3ccccc3F)SC2)cc1OC1CCOC1 (stereo not given),.,-40,-4,41,.,.,8,-3
CS(=O)(=O)c1nc(S(=O)(=O)c2ccc(Cl)cc2)c(N2CCN(CCO)CC2)s1,-7,9,-18,-14,11,i,-3,-3
COc1ccc(-c2nc(C#N)c(NCc3ccco3)o2)cc1,-1,4,0,.,5,i,6,2
CC(C)Oc1cccc(NC(=O)C2(C)CCCN(C)C2)c1 (stereo not given),.,-20,4,.,.,.,0,0
O=C1c2ccccc2S(=O)(=O)c2cc(C(=O)N(c3ccccn3)c3ccccn3)ccc21,-16,.,0,-8,-8,i,1,4
Cc1cccc(NC(=O)CNC(=O)c2cc(C3CC3)nn2-c2ccccc2)c1C,.,13,-3,.,.,.,-1,-2
O=C(NCc1ccc(F)cc1)C1CC(=O)N(CCc2ccccc2)C1 (stereo not given),1,.,.,-7,5,i,3,3
CCOC(=O)NC(Nc1sc2c(c1C(N)=O)CCCC2)(C(=O)OCC)C(F)(F)F (stereo not given),0,10,-12,-13,0,i,5,5
O=C(/C=C\c1ccc2c(c1)OCO2)CC1(O)C(=O)Nc2ccccc21 (stereo not given),-11,-9,-27,.,12,i,-3,-5
Cc1cc(-c2n[nH]c(=S)n2Cc2ccccc2)cs1,-4,12,.,-6,-15,i,0,-3
CCCCOC(=O)CSc1nnc(-c2ccc(Cl)cc2Cl)o1,6,.,-8,1,-9,i,7,2
Cc1ccc(OCc2nc(C#N)c(N3CCCCC3)o2)cc1,-10,13,.,-2,-1,i,2,2
COc1ccc(-c2csc(NC(=O)Cc3cc(OC)c(OC)c(OC)c3)n2)cc1OC,-12,16,-18,-6,-5,i,-2,-18
CCOC(=O)Cn1c(=O)cc(C)c2ccccc21,-4,3,.,-13,0,i,1,5
Cc1cc(C)c(S(=O)(=O)N2CCOCC2)c(C)c1N(C)S(=O)(=O)c1ccccc1,4,5,-1,-9,6,i,4,-4
COc1ccccc1OC(C)C(=O)N1CC(=O)Nc2ccccc21 (stereo not given),0,12,-3,-6,-6,.,-2,2
C=CCNC(=O)/C(C#N)=C/c1ccc2c(c1)OCCO2,0,-4,.,0,0,i,2,5
COc1ccc(CCNCCN2CCOCC2)cc1,2,2,-2,-1,6,i,2,2

# Additional entries:
SMILES,eIF4H inh,HIV Env fusion,Yeast UUG start,CSC inhib,PABP FP inh,Rce1 inhib,MT1-MMP act inh,MT1-MMP act inh RFP
O=C(C1CC(=O)N(c2ccccc2)C1)N1CCN(c2ccccc2)CC1 (stereo not given),2,6,-10,-10,12,i,-4,4
CC1SC(C)C(=O)N(CC(=O)NC2CCCCC2)C1=O (stereo not given),-4,-10,7,.,5,.,6,7
COc1ccccc1C(=O)OCC#CCSc1nnc(-c2cccc3ccccc23)o1,.,-23,-16,.,.,.,-1,4
CCc1sc(C(=O)NCc2cc(C)n(C)n2)cc1Br,7,-31,-13,-6,-8,i,6,-2
CN(C(=O)CN1C(=O)/C(=C/c2ccccc2Cl)SC1=S)C1CCS(=O)(=O)C1 (stereo not given),-4,-2,.,-1,10,i,-3,-3
CC(C)(C)NNC(=S)Nc1cccc(C(F)(F)F)c1,-1,-27,-39,-4,7,i,2,-2
COC(=O)[C@@]1(Cc2ccc(OC)cc2)[C@@H]2C(=CC(=O)[C@H]2CC(=O)C(=O)N2CCCC2)CN1C(=O)c1ccccc1,-6,.,3,37,-5,.,-13,-20
CC1(C(=O)NS(=O)(=O)c2cccc(C#N)c2)CCN1C(=O)c1ccco1 (stereo not given),.,9,-3,.,.,.,5,4
Cn1c2c(c(=O)n(C)c1=O)CN(Cc1ccc3c(c1)OCO3)CN2,2,.,-12,0,-7,i,-3,-1
COc1ccccc1/C=C/C(=O)Nc1ccc2c(c1)CCC2,1,-135,.,44,-2,i,5,2
Cc1ncc(CO)c2cc(C(=O)Nc3ccccc3Cl)c(=Nc3cccc(C(N)=O)c3)oc12,-2,9,-8,-5,-5,i,3,4
COC(=O)C1=NN(C(=O)c2ccc(C)cc2)C(O)(c2ccc(Cl)cc2)C1 (stereo not given),26,.,.,6,3,i,.,.
CCN(CC)S(=O)(=O)c1ccc2[nH]cc(C(=O)NCCc3ccccc3)c(=O)c2c1,4,.,-14,-5,4,i,-6,-24
CC(=O)NS(=O)(=O)c1ccc(NC(=O)CSc2ccc(C)cc2)cc1,-1,8,-5,8,4,i,7,-1
CSc1nsc(SC)c1C(=O)NCCNS(=O)(=O)c1ccc(C)cc1,2,.,-17,-5,-9,i,1,1
COCCCn1c(SCC(=O)Nc2cccc(C)n2)nnc1-c1ccco1,11,-277,-13,-5,7,.,-2,2
NC(=O)c1ncc(C(F)(F)F)cc1Oc1cccc(C(F)(F)F)c1,-10,.,-17,-8,2,i,6,2
CC1(c2ccccc2)NC(=O)N(CC(=O)NC(=O)NC2CCCC2)C1=O (stereo not given),-1,6,.,-11,2,i,0,2
CC(C)C(=O)Nc1cccc(NC(=S)NC(=O)c2cccs2)c1,-2,-33,-2,1,-5,i,0,-7
O=C(COc1ccc(Cl)cc1)Nc1ccc2oc(=O)ccc2c1,-3,-60,-3,-3,-3,i,4,4
CC(=O)Nc1nc(C)c(-c2nc3ccc([N+](=O)[O-])cc3[nH]2)s1,2,-30,-7,1,-2,i,7,2

# In a second layout: results already given.
# Screens in order: eIF4H inh, HIV Env fusion, Yeast UUG start, CSC inhib, PABP FP inh, Rce1 inhib, MT1-MMP act inh, MT1-MMP act inh RFP
CC1(c2ccccc2)NC(=O)N(CC(=O)NC(=O)NC2CCCC2)C1=O (stereo not given)
 : -1, 6, ., -11, 2, i, 0, 2
CC(C)C(=O)Nc1cccc(NC(=S)NC(=O)c2cccs2)c1
 : -2, -33, -2, 1, -5, i, 0, -7
O=C(COc1ccc(Cl)cc1)Nc1ccc2oc(=O)ccc2c1
 : -3, -60, -3, -3, -3, i, 4, 4

# Screening results deposited in PubChem BioAssay by several laboratories.

# Hits appear at their usual frequency; 2.9% or so of the library scored in one or more.
